# Screening data as filed in PubChem.
# D2 ag = activates the human D2 dopamine receptor | activation, % (no concentration beside the values) | 360,000 tested, 0.084% active | AID 624465 | DiscoveRx PathHunter D2 beta-arrestin, luminescence, 90 min; 100% = 57 uM dopamine signal; in the data active = activation above about 40%; inconclusive = about 15% to 40%; inactive = below about 15%; also: compound concentration not given in the record; the text of the record calls up to 30% inactive
# Target sequence (P14416 whole entry, looked up): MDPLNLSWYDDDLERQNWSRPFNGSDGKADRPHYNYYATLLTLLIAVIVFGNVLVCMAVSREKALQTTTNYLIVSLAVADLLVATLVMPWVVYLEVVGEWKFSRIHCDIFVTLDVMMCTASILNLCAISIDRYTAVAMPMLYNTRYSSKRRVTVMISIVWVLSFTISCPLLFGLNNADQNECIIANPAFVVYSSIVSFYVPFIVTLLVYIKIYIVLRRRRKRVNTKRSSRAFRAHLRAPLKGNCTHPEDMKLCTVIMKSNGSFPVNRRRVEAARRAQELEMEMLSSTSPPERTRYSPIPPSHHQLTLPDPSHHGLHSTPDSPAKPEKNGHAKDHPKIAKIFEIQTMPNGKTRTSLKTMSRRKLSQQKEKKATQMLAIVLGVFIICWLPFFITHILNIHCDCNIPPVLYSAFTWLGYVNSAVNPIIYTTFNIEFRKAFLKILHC
#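 DiscoveRx PathHunter D2 beta-arrestin cells (2,100/well) attached overnight, then compound-stimulated 90 min at 37 C in HBSS/10 mM HEPES/0.1% Tween-20 buffer; beta-galactosidase complementation read by luminescence after 1 h at ambient temperature. Dopamine 57 uM final (EC100) as control.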
# PINK1 expr mod = changes PINK1 expression | PINK1 immunofluorescence, high-content cytometry, 24 h | Potency, µM (doses to about 76.6 µM), for the others: at the highest dose activation (PINK1 increase), usual class: activators | 410,000 tested, 0.2% active; active = well fitted activation curve with a large enough effect; inconclusive = small, poorly fitted or top-dose-only effect; inactive = flat fitted curve, though single readings scatter; cell line not stated here;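 also: potency is read from the fitted curve at half-maximal effect; % of control where 0% means no effect; nearly all actives have a fitted effect of over 65% in size; a mitochondrial uncoupler was the plate control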
#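 Stable cell line treated 24 h with compounds at 5 concentrations (CCCP controls), then fixed and immunostained for PINK1 plus nuclear and cell stains; PINK1 immunofluorescence quantified by laser-scanning microplate cytometry.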
# Six1-Eya2 blk = Six1/Eya2 interaction inhibition; AlphaScreen GST-Six1/His-Eya2 binding, biochemical; active compounds read low; control for the full effect not named in the record; activity change, % (test concentration not listed); 360,000 tested, 0.56% active; Q15475+O00167; AID 651725; in the data active = activity change below about -65%; inconclusive = about -30% to -65%; inactive = above about -30%; also: % is scaled to controls: 0 for no effect and ±100 for the full control effect
#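 Homogeneous AlphaScreen proximity assay pairing GST-Six1 with His-tagged Eya2 (added as 5X mix: 250 nM and 500 nM) in 50 mM Tris pH 8.0, 300 mM NaCl, 1 mM TCEP. Glutathione donor and nickel acceptor beads; 1 h, 37 °C, dark.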
# D2 PAM = human D2 receptor positive allosteric modulation | P14416 | DiscoveRx D2 beta-arrestin cells, luminescence, 90 min; 100% = 57 uM dopamine signal | potentiation, % (test concentration not listed) | 360,000 tested, 0.23% active | AID 624464; active = potentiation of 50% or more; inconclusive = 30% to 50%; inactive = 30% or less;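 also: compound concentration not given in the record; tested on top of an EC20 dose of dopamine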
#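 PathHunter D2 cells, attached overnight at 37 deg C, received compound in DMSO plus dopamine at EC20 (50 nM final) for 90 min at 37 deg C. Beta-arrestin recruitment was read as luminescence after 1 h with detection reagent at ambient temperature.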
# TRPML1 inh = blocks the human TRPML1 channel; activity change, negative = inhibition, % (test concentration not listed); TRPML1-inducible cells, Ca2+ dye fluorescence, FDSS; active compounds read low; inhibition of EC80 agonist-evoked calcium signal; AID 624415; 390,000 tested, 0.02% active; Q9GZU1; in the data active means activity change below about -50%; inconclusive means about -30% to -50%; inactive means above about -30%;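 also: stimulus is agonist 54-4 at its EC80 concentration; % is scaled to controls: 0 for no effect and ±100 for the full control effect; compound concentration not given in the record; the text of the record puts the active cut at -80%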
# Target sequence (Q9GZU1 whole entry, looked up): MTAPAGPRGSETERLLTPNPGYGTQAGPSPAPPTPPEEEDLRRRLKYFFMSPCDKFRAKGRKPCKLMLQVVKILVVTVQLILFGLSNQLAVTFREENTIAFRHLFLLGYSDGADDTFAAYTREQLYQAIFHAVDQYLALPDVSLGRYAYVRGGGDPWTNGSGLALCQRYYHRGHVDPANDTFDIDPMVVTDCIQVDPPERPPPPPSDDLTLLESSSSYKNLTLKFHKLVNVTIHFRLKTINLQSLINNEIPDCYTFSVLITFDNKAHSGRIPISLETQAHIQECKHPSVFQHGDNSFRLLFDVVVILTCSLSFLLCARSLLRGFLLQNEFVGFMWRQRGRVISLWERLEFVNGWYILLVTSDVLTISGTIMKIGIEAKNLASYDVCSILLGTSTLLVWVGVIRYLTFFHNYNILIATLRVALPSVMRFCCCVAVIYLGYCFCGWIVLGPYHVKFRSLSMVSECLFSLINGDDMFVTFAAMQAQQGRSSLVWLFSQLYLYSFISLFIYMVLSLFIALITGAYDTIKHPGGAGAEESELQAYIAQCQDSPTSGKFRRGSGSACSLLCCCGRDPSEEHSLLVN
#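 Tet-induced TRPML1-DL cells loaded with Ca8 no-wash calcium dye were read kinetically on FDSS. Compound addition was followed by EC80 agonist 54-4 (4 uM final); inhibition was read over 110 s.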
# TRPML1 agonist = activates the human TRPML1 channel | activation, % (test concentration not listed) | TRPML1-expressing cells, Ca2+ dye fluorescence, FDSS; host cell line not named in the record; reference of the full effect not given here | AID 624414 | 410,000 tested, 0.12% active; in the data active = activation above about 50%; inconclusive = about 30% to 50%; inactive = below about 30%; also: 0% is about no effect; the text of the record puts the active cut at 80%
#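 Tet-induced TRPML1-DL cells, 1,500 per well, cultured overnight, were loaded with a no-wash Ca2+ dye for 45–90 min. Calcium fluorescence was recorded on the FDSS for 110 s after compound addition, before the EC80 agonist (4 uM 54-4) was added.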
# Numbers without * were called inactive; ? = inconclusive; . = not tested or not shown; & = joins results of further samples; [ ] = remark or other dose.
SMILES,D2 ag,PINK1 expr mod,Six1-Eya2 blk,D2 PAM,TRPML1 inh,TRPML1 agonist
Cc1cccc(CNC(=O)c2cccc(NC(=O)N3CCSc4ncccc43)c2)c1,.,2.9%,.,.,19,1.4
CN1C(=O)C(CCC(N)=O)NC1=S (stereo unspecified),-5.2,1.2%,0,-11,-15,0.5
N#Cc1c(-c2ccc(F)cc2)cc(-c2ccccc2)nc1SCC(=O)NCC(=O)O,-3.4,5.4%,0,-2,-10,3.1
CN(C)S(=O)(=O)c1ccc(N2CCCC2)c(C(=O)Nc2ccccc2F)c1,-4.7,1.2%,-2,-2,-2,-0.8
COc1ccc(-c2csc(NC(=O)c3cc(C)on3)c2C#N)cc1OC,-1.2,24%[38.3 µM],8,1,3,0.9
Clc1ccc(OCc2nnc(SCCN3CCCCC3)n2Cc2ccco2)cc1,-1.1,0.5%,-7,-35,62,2.2
N#Cc1cc2c(nc1SCC(=O)O)CCCCC2,-3.5,-0.7%,4,-14,-3,-0.8
CCOC(=O)[C@H]1[C@H]2COc3ccc(C)cc3[C@@H]2N2C(=O)c3cc(OC)c(OC)cc3NC(=O)[C@@]12C,-2.1,0.8%,19,2,-15,0.6
Cc1cccc(C)c1NC(=O)NCCSc1snnc1C,-1.1,-1.8%,0,0,-9,-0.3
CC1=CC(C)(C)N(C(=O)CSc2ncn[nH]2)c2ccccc21,-3.3,8.9%[38.3 µM],2,-11,1,0.8
Cc1ccc(C)c(NS(=O)(=O)c2c(C)[nH]c(C)c2C(=O)N2CCCCC2)c1,-4.0,2.8%,1,-3,?,-0.4
CCc1cccc(C)c1NC(=S)N(CCOC)C(C)c1ccco1 (stereo unspecified),-8.7,1.3%,-2,-4,18,1.7
COc1cccc(CN(C)C(=O)Cc2c[nH]c3ccccc23)c1OC,-4.1,-1.2%,-17,-2,11,-1.4
CCOC(=O)c1[nH]c2ccccc2c1NC(=O)c1cc(Cl)ccc1Cl,.,4.2%,.,.,-6,-1.0
CC1(C(=O)NC2CCCC2)CCC(=O)N1CCc1c[nH]c2ccccc12 (stereo unspecified),-3.2,-0.1%,10,-6,.,0.7
CCOC(=O)c1c[nH]c2c(Cl)c(Cl)ccc2c1=O,-1.0,-2.6%,1,12,-6,0.9
COc1ccc(CNC(=O)COC(=O)/C=C/c2ccc(S(=O)(=O)N3CCOCC3)cc2)cc1,4.7,-3.3%,66,7,13,0.5
O=c1c2ccccc2sn1-c1ccc(S(=O)(=O)N2CCCC2)cc1,-1.4,1.9%[38.3 µM],-6,-21,-6,5.4&0.6
CN(C)c1ccc2nsnc2c1[N+](=O)[O-],-2.4,0.1%,-13,-3,-13,0.1
CN(C)CCCNC(=S)NCc1ccc(Cl)cc1,-9.8,2.5%,1,-37,17,0.8
Cc1ccc2nc(-c3cccc(NC(=O)c4cccc5ccccc45)c3)oc2c1,.,3.1%,.,.,17,-0.1
Fc1ccc(COc2cccc(CNCc3ccncc3)c2)cc1,6.3,-0.6%,40,-15,-8,1.9
CCc1nnc(NC(=O)CSc2nnc(-c3ccccc3OC)n2-c2ccc(C)cc2)s1,-0.7,-1.2%,-7,2,3,4.1
Cc1cc(C(C)c2ccccc2)c(O)c(CN2CCOCC2)c1C (stereo unspecified),-3.6,0.7%,-19,-14,6,15
C=CCn1c(SCC(=O)Nc2ccccc2OC)nc(O)c(CC)c1=O,0.2,-1.5%[38.3 µM],-2,-3,-10,0.4
# The list continues.
SMILES,D2 ag,PINK1 expr mod,Six1-Eya2 blk,D2 PAM,TRPML1 inh,TRPML1 agonist
OCCN1CCN(c2ncnc3sc(-c4ccccc4)cc23)CC1,3.1,0.5%,0,-16,-7,0.4
COc1ccccc1CN1C(=O)[C@@H]2C(CCC(N)=O)NC3(C(=O)Nc4c3ccc(Cl)c4C)[C@@H]2C1=O (stereo partly specified),-1.4,-2.6%,2,0,-17,1.9
COc1cc(NC(=O)C/C(C)=N/NC(=O)c2cccc(O)c2)c(OC)cc1Cl,-4.3,4.8%,?,-15,1,-1.2
Cc1cc(=O)oc(C)c1C(=O)NCC(C)C,-0.5,0.0%[38.3 µM],2,-2,0,-0.6
O=S(=O)(N/N=C\c1cccc(F)c1)c1ccccc1,-7.8,-1.1%,1,-38,-12,-0.9
CC(C)(C)n1nc2c(c1NC(=O)c1ccc(C(F)(F)F)cc1)CS(=O)(=O)C2,-1.7,0.3%,8,-7,13,0.2
COCCn1c(SCCCC(=O)c2ccc(Br)cc2)nnc1-c1ccncc1,-3.6,0.2%,-2,6,-6,-1.4
COCCCNC(=O)C1CCN(c2nnc(-n3cccc3CNc3ccc(C)cc3)s2)CC1,.,1.6%,.,.,24,0.7
Cc1ccc(C(=O)CC(C(=O)O)c2cn(CCC#N)c3ccccc23)cc1 (stereo unspecified),-0.9,0.0%,5,-12,15,0.4
O=C(CSc1nc(O)c(C/C=C/c2ccccc2)c(=O)[nH]1)Nc1cccc(F)c1,.,-0.1%,.,.,-11,1.6
CC(=O)Nc1ccc(O)c(-c2nc3ccccc3s2)c1,-2.0,2.5%,-14,-9,26,2.1
CC1CCCN(C(=O)c2cccc(S(=O)(=O)NCc3ccccc3)c2)C1 (stereo unspecified),-1.6,-1.5%,3,-15,7,-0.9
CCOC(=O)c1ccc(NC(=S)Nc2ccc(Br)cc2N)cc1,-1.0,-0.2%,0,-33,-3,-1.1
CN(c1cccc(NS(=O)(=O)c2ccccc2)c1)S(C)(=O)=O,-0.6,-0.1%,3,2,29,-0.6
Cc1ccc(-c2csc(SCC(=O)Nc3cc(C)on3)n2)cc1,-2.6,12%,4,-3,12,2.1
COC(=O)c1ccc(Cl)cc1NC(=O)N(C)CCc1c(C)nn(C)c1C,.,-1.0%,.,.,5,-0.7
CC(=O)c1cccc(N2C(=O)C3C4CCC(C4=C(C)C)C3C2=O)c1 (stereo unspecified),0.2,-1.9%,9,-2,2,0.3
Cc1cccc(NC(=O)COC(=O)c2nn(-c3ccccc3C(F)(F)F)cc2O)c1C,-2.3,0.3%,-8,2,16,-0.9
Cc1cc(CNCCN(C)C)c(C)n1-c1cc(S(=O)(=O)N2CCOCC2)ccc1N1CCCC1,-1.4,2.7%,-2,-11,-1,-0.2
Cc1ccc(/C=N/c2sc3c(c2C#N)CCC3)s1,3.2,1.0%,-5,-12,0,1.7
O=C(NCC1CCCO1)C(=O)NCC(c1ccco1)N1CCN(c2ccccc2)CC1 (stereo unspecified),14,-2.0%,1,-8,-10,0.9
COc1ccc(CC(=O)OCc2cc3cccc(C)c3[nH]c2=O)cc1,-4.5,5.0%[38.3 µM],-1,0,-19,2.2
O=C(CSc1ccc2ccccc2c1Br)Nc1cccc(S(=O)(=O)NC2=NCCCCC2)c1,0.0,-2.8%,-9,-12,-5,0.4
CCn1ncc(C2=NOC(C(=O)Nc3ccccc3C(=O)OC)C2)c1C (stereo unspecified),2.4,4.4%[38.3 µM],-1,5,26,0.8
O=C(Cc1ccc([N+](=O)[O-])cc1)Nc1nccs1,-1.4,1.4%,-3,-4,3,4.5

# Arranged by heavy-atom count (low to high): some entries from above.
SMILES,D2 ag,PINK1 expr mod,Six1-Eya2 blk,D2 PAM,TRPML1 inh,TRPML1 agonist
Cc1ccc(-c2csc(SCC(=O)Nc3cc(C)on3)n2)cc1,-2.6,12%,4,-3,12,2.1
CCn1ncc(C2=NOC(C(=O)Nc3ccccc3C(=O)OC)C2)c1C (stereo unspecified),2.4,4.4%[38.3 µM],-1,5,26,0.8
O=C(NCC1CCCO1)C(=O)NCC(c1ccco1)N1CCN(c2ccccc2)CC1 (stereo unspecified),14,-2.0%,1,-8,-10,0.9

# Next section:
SMILES,D2 ag,PINK1 expr mod,Six1-Eya2 blk,D2 PAM,TRPML1 inh,TRPML1 agonist
O=C(NC1=C(Nc2ccc(Cl)cc2)C(=O)c2ccccc2C1=O)c1ccccc1,12,6.8%,?,51*,-7,4.1
CCN(CC)S(=O)(=O)c1ccc(N2CCCCC2)c(NC(=O)/C=C/c2ccc(OC)c(OC)c2)c1,0.6,1.4%,-7,9,-19,-0.5
COc1ccccc1NC(=O)CSC1=NC(=O)C(NC(C)=O)C(=O)N1 (stereo unspecified),1.7,-0.3%,-5,-14,72,0.3
CCCCOC(=O)Nc1ccccc1C(=O)OC,-3.2,11%,25,-3,4,0.6
O=C1CCN(CCc2ccccc2)CCN1[C@H](CSc1ccc(Br)cc1)Cc1ccccc1,0.8,14%,-25,-24,79,2.2
O=C1CC(N(Cc2cccs2)C(=O)Nc2ccccc2)C(=O)N1c1ccc(Cl)cc1 (stereo unspecified),-1.8,0.3%,21,-24,-12,0.7
C/C(=N\NC(=O)CSCc1ccc([N+](=O)[O-])cc1)c1ccccc1O,-4.5,5.5%,-9,-42,35,-0.9
CCOc1cc(/C=N/O)cc(Cl)c1OC,-3.8,-0.9%,-7,-13,35,0.5
Cc1ccc(Cl)cc1NC(=O)COC(=O)CC1CC2CCC1C2 (stereo unspecified),-0.9,2.0%,6,-9,7,-0.8
Cc1ccc(S(=O)(=O)NC(=O)c2ccc(-c3ccc(C)c4ccccc34)o2)cc1,-2.1,0.9%,-3,-6,-4,-0.3
CC(=NN(Cc1ccccc1)c1ccccc1)c1ccccc1,-4.0,?,3,-26,-10,2.9
Cc1ccc(NC(=O)c2sc(N)nc2-c2ccc([N+](=O)[O-])cc2)cc1C,-3.9,7.4%,5,-1,30,0.5
COc1ccccc1NC(=O)Cc1coc2cc(C)ccc12,-2.6,-0.9%,2,-4,1,-1.1
Cc1cccc2cc(CN(Cc3ccc(F)cc3)Cc3nnnn3C3CCCC3)c(=O)[nH]c12,-0.3,9.8%[38.3 µM],2,-16,26,0.8
Cc1nc2ncccn2c1-c1csc(Nc2cccc(C(=O)O)c2)n1,3.0,0.7%,?,-3,4,-0.1
COc1ccccc1CNC(=O)C1CCN(C(=O)N(C)C)CC1,-0.2,16%[38.3 µM],2,-6,-12,0.3
COc1cc(/C=N/n2c(=S)[nH]nc(C)c2=O)cc([N+](=O)[O-])c1O,0.0,2.4%,-26,-7,11,-0.4
CC(=O)N1CCc2c(sc3c2c(=O)n(-c2ccccc2)c(=O)n3CC(=O)c2ccc(Cl)cc2)C1,.,2.2%,.,.,8,-0.7
COc1ccc(-c2nn(-c3ccccc3)cc2C(=O)Nc2ccc(C(=O)O)cc2)cc1OC,1.8,1.9%,-13,-5,-14,-0.3
O=C(CN1C(=O)C(=O)N(C2CCCC2)C1=O)Nc1ccc(N2CCOCC2)cc1,-1.9,0.5%,14,-4,-4,-0.5
Cc1cccc(C)c1NC(=O)CN(C)S(=O)(=O)c1ccc2[nH]c3c(c2c1)CCCC3,.,0.9%,.,.,-14,3.6

# Arranged by the number under Six1-Eya2 blk (high to low): some entries from above.
compound,D2 ag,PINK1 expr mod,Six1-Eya2 blk,D2 PAM,TRPML1 inh
COc1ccccc1NC(=O)Cc1coc2cc(C)ccc12,-2.6,-0.9%,2,-4,1
CCN(CC)S(=O)(=O)c1ccc(N2CCCCC2)c(NC(=O)/C=C/c2ccc(OC)c(OC)c2)c1,0.6,1.4%,-7,9,-19
C/C(=N\NC(=O)CSCc1ccc([N+](=O)[O-])cc1)c1ccccc1O,-4.5,5.5%,-9,-42,35
O=C1CCN(CCc2ccccc2)CCN1[C@H](CSc1ccc(Br)cc1)Cc1ccccc1,0.8,14%,-25,-24,79
